# Screening results from PubChem BioAssay.
# 2A firefly: lowers the firefly signal of an FMDV 2A StopGo reporter; HEK cells with a luciferase reporter of 2A StopGo recoding; Potency, µM (highest dose often 57.5 µM), for inactives: at the top dose signal change, negative = less light; 0.23% of 120,000 active; active = well fitted falling curve with a large enough effect; inconclusive = small, poorly fitted or top-dose-only effect; inactive = no such curve, though single readings can be large or run the other way; also: nearly all actives have a fitted effect of over 60% in size; overnight with compound
# 2A Renilla: lowers the Renilla signal of an FMDV 2A StopGo reporter; HEK cells with a luciferase reporter of 2A StopGo recoding; Potency, µM (titrated, usually from 57.5 µM), inactives show at the highest dose signal change, negative = less light; AID 1745857; 0.32% of 120,000 active; active means well fitted falling curve with a large enough effect; inconclusive means small, poorly fitted or top-dose-only effect; inactive means no such curve, though single readings can be large or run the other way; also: nearly all actives have a fitted effect of over 55% in size; overnight with compound
# Active calls of the source: *; u = inconclusive; [ ] = dose if it differs, or a comment. % is scaled to controls: 0 for no effect and ±100 for the full control effect; potency is read from the fitted curve at half-maximal effect. The order is random, and some 0.53% of all compounds hit somewhere here.
no. | SMILES | 2A firefly | 2A Renilla
1 | CCCCCc1ccc(-c2ccc(CCC)cc2)nc1 | 53.9%[activator] | 18.0%
2 | COC(=O)Cc1csc(NC(=O)Cc2c(C)c3cc(Cl)c(O)cc3oc2=O)n1 | 14.4% | 1.9%
3 | COc1ccc(C(=O)Nc2ccc3oc(-c4ccc(F)cc4Cl)nc3c2)cc1 | 8.6% | 5.8%
4 | CCNc1c(NC(=O)NCC2CCCO2)c(=O)oc2ccccc12 (stereo not given) | -4.2% | -9.4%
5 | CCOC(=O)CSc1nc(C)c2ccc(C)cc2n1 | 2.2% | -5.7%
6 | Cn1c(=O)[nH]c(=O)c2c1nc(N1CCN(CCO)CC1)n2Cc1cccc(Br)c1 | -4.5% | -8.6%
7 | Cc1ccc(CC(=O)NCc2nc(-c3ccccc3)no2)cc1 | -8.4% | -5.2%
8 | Cc1cccc(NC(=O)CN(C)Cc2coc(-c3ccccc3)n2)c1C | 7.5% | -2.2%
9 | CCc1cccc2c(C(=O)COC(=O)c3ccccn3)c[nH]c12 | 17.8% | -7.9%
10 | CC(C)c1ccc(NC(=O)c2ccc3c(Cl)c4c(nc3c2)CCC4)cc1 | u | u
11 | C=CCN(CCc1ccccc1)C(=O)c1nn(C)c(=O)c2ccccc12 | u | u
12 | COc1ccccc1NC(=O)c1sc2nc(C)c(C(=O)Nc3ccc(C)cc3C)c(-c3cccs3)c2c1N | -8.0% | 5.2%
13 | Cc1c(CC(=O)NCCc2ccccc2)c(=O)oc2cc(O)ccc12 | 1.5% | -8.7%
14 | Cc1ccccc1OC(=O)CSc1nnc(-c2ccc3c(c2)OCO3)o1 | u | -11.0%
15 | C=CCNCc1ccc(-c2ccc(C(=O)OC)cc2)o1 | 129.1%[activator] | 24.1%
16 | Cc1c(C)n(C)c2ccc(C(=O)NCCCN3CCCCC3C)cc12 (stereo not given) | -19.4% | -18.3%
17 | Clc1c(/C=N/Nc2ccccc2)sc2ccccc12 | 207.2%[activator] | 27.1%
18 | N#CC(C(=O)CCOCc1ccccc1)c1ccc2ccccc2n1 (stereo not given) | 14.2% | 0.0%
19 | COc1cccc(C(=O)N(Cc2cccc(Cl)c2)Cc2ccco2)c1 | 0.0% | 16.0%
20 | Fc1cc(Br)ccc1OCc1cc(-c2cccs2)on1 | 165.8%[activator] | 19.2%
21 | COc1ccc(CNc2oc(/C=C/c3cc(OC)c(OC)c(OC)c3)nc2C#N)cc1 | 6.5% | 42.4%[activator]
22 | CNc1nc(SCC(=O)Nc2cc(C)on2)nc2ccccc12 | 3.7% | -1.1%
23 | Cc1ccc(C(=O)Nc2cccc(CCC(=O)N(C)C)c2)cc1 | 1.5% | 17.9%
24 | COc1ccc(N2CC(NC(=O)Cc3cccs3)CC2=O)cc1 (stereo not given) | -10.2% | -5.7%
25 | COc1ccc(NC(=O)C(=O)c2c(C)n(C)c3ccccc23)cc1OC | 42.6%[activator] | 55.5%[activator]
26 | Cc1cc(OCC(=O)N(Cc2ccc(N(C)C)cc2)Cc2ccco2)cc(C)c1Cl | 0.0% | 17.6%
27 | O=Cc1cc(Cl)ccc1OC(=O)/C=C/c1ccc(F)cc1 | 21.0% | 6.7%
28 | O=C1C(c2ccccc2)=S=C2C=Cc3ccccc3N12 | 0.0% | 8.3%
29 | COc1ccc(NC(=O)Cc2coc3cc(C)cc(C)c23)c(OC)c1 | -11.6% | 4.3%
30 | CCCS(=O)(=O)NCCc1sc2nc(-c3ccc(F)cc3)nn2c1C | -21.1% | u
31 | COc1ccc2c(Nc3cc(OC)c(OC)c(OC)c3)c(C#N)cnc2c1 | -12.5% | 5.7%
32 | N#C/C(=C/c1c[nH]c2ccccc12)C(=O)N1CCCC1 | 227.2%[activator] | 0.0%
33 | Cn1cc(C(=O)NC2(C)CCS(=O)(=O)C2)c2ccccc21 (stereo not given) | -3.4% | -11.4%
34 | CCCCNc1nc2c(c(=O)n(C)c(=O)n2C)n1C | 8.5% | 6.7%
35 | CNC(=O)C1CCC(Cn2c(=O)c3sccc3n(CC(=O)N3CCCCC3C)c2=O)CC1 (stereo not given) | -3.6% | 8.2%
36 | CCOC(=O)Cc1csc(NC(=O)Cc2c(C)c3c(OC)cc(C)cc3oc2=O)n1 | -11.1% | 4.2%
37 | COc1ccc(CCNC(=O)CCCn2c(=O)c3ccccc3n(CC(=O)Nc3cc(Cl)ccc3C)c2=O)cc1OC | -17.5% | -8.5%
38 | CCOC(=O)c1c(C)[nH]c(C)c1S(=O)(=O)NCC(=O)NCc1ccccc1C | -3.3% | 56.2%[activator]
39 | CC(CNC(=O)CCCNC(=O)C(C)(C)C)c1ccccc1 (stereo not given) | 0.0% | 8.6%
40 | COC(=O)C1(C)Cc2ccc(C)cc2C(=O)O1 (stereo not given) | -3.3% | 0.7%
41 | CCOC(=O)c1c(C)c(-c2ccccc2)n(CC(=O)NCCN(C)C)c1C | -17.9% | -17.7%
42 | COc1ccc(COC(=O)C2=C(C)NC(=O)CC2c2cccc(Cl)c2Cl)cc1 (stereo not given) | -21.3% | -6.3%
43 | CCCCN(CCCC)C(=O)c1ccc(N)cc1 | 3.9% | 15.5%
44 | COc1cc(C=O)ccc1OCCCCOc1ccc(Cl)cc1Br | 26.0% | 4.0%
45 | COc1ccc(Cn2ccc3nc(C)c(C(=O)Nc4cc(C)cc(C)c4)cc3c2=O)cc1 | -1.8% | 10.5%

# Shown with each value named: two of the compounds above.
(4) CCNc1c(NC(=O)NCC2CCCO2)c(=O)oc2ccccc12 (stereo not given)
  2A firefly: -4.2%	2A Renilla: -9.4%
(5) CCOC(=O)CSc1nc(C)c2ccc(C)cc2n1
  2A firefly: 2.2%	2A Renilla: -5.7%

# Carrying on:
No.	canonical_smiles	2A firefly	2A Renilla
46	CC1CCCN(S(=O)(=O)c2ccc(NC(=O)c3cc(=O)c4cc(Cl)ccc4o3)cc2)C1 (stereo not given)	3.0%	-4.1%
47	CC1=C(C(N)=O)C(c2cccc(O)c2)n2ncnc2N1 (stereo not given)	-18.0%	-12.1%
48	Cc1ccc(S(=O)(=O)NC2CC2)cc1C(=O)Nc1ccc(N2CCCCC2)c2ccncc12	-9.2%	12.1%
49	O=C(CNC(=O)c1ccc(F)cc1)OCc1cc(=O)n2ccsc2n1	-19.3%	-4.3%
50	COc1ccc2c(c1)CC(C(=O)NCCN1CCN(c3cccc(Cl)c3)CC1)CO2 (stereo not given)	-7.9%	-8.6%
51	Cc1cccc(-n2c(SCC(=O)N3CCCCC3)nc3ccccc3c2=O)n1	15.6%	6.1%
52	Cc1ccc(NC(=O)CSc2ccc(N3CCC(C(=O)N4CCCCC4)CC3)nn2)cc1C	u	u
53	COc1cccc(N2CCN(C(=O)C(CCSC)NS(=O)(=O)c3ccc4c(c3)oc(=O)n4C)CC2)c1 (stereo not given)	-20.7%	8.5%
54	Cc1ccc(-c2nn3c(C(C)C)nnc3c3ccccc23)cc1S(=O)(=O)N(C)CCO	19.3%	11.3%
55	CCCOC(=O)c1cc(-c2ccccc2)nc2ccccc12	29.2%	9.3%
56	Cc1csc(NC(=O)C(NC(=O)c2ccccc2F)C(C)C)n1 (stereo not given)	0.0%	16.1%
57	O=C(c1cc(-c2ccco2)[nH]n1)N1CCN(c2ccccn2)CC1	17.3%	3.8%
58	Cc1cccc(NC(=O)C23CCC(C)(C(=O)C2)C3(C)C)c1C (stereo not given)	-8.0%	-4.1%
59	O=C(Cn1nc(-c2cccs2)c2ccccc2c1=O)NCCc1ccc(F)cc1	1.8%	-0.9%
60	Cc1ccc(-n2nc(CO)c(C(=O)NCc3ccc4c(c3)OCO4)n2)cc1	-4.7%	-13.4%
61	Cc1ccc(C(=O)NCC(=O)OCc2cc(=O)n3nc(C4CC4)sc3n2)cc1	-13.2%	-7.4%
62	COc1ccc(-c2nc3ccccc3n2Cc2ccc(C(C)C)cc2)cc1	59.6%[activator]	18.9%
63	O=C(NC1CCCc2ccccc21)c1csc2c1CCCC2 (stereo not given)	10.4%	97.9%[activator]
64	CNC(=O)c1ccccc1NCC(=O)Nc1sc2c(c1C(=O)OC)CCCCC2	9.9%	-1.1%
65	CCc1ccc(NC(=O)Cn2c(=O)n(-c3ccc(Cl)c(Cl)c3)c(=O)c3c(C)c(C)sc32)cc1	3.5%	-1.4%
66	CC(=O)N1CCN(c2nc(-c3cccs3)nc3ccccc23)CC1	23.9%	51.9%[activator]
67	CCc1sc(C(=O)OCC(=O)N2CCC(c3ccccc3)=N2)cc1C	-19.4%	-10.2%
68	O=S(=O)(NCc1ccc(F)cc1)c1ccc2[nH]c3c(c2c1)CCCCC3	2.0%	197.9%[activator]
69	Cc1c(CN(C)C(=O)c2cc(-c3ccccc3)nc3ccc(Br)cc23)cnn1C	-0.5%	123.2%[activator]
70	Cn1nc(C(=O)OCc2nc(-c3cccc(F)c3)no2)c2ccccc21	14.5%	-0.5%
71	COc1cccc(NC(=O)c2cc[n+]([O-])cc2)c1	19.1%	-2.6%
72	CC(C)NC(=O)NC(=O)CN(C)Cc1cccc(F)c1	24.2%	12.1%
73	CCOC(=O)C1CCN(C(=O)c2cc(-c3cccc(OC)c3)n[nH]2)CC1	102.8%[activator]	4.6%
74	Cc1sc(NC(=O)c2ccc(CN(C)C)cc2)nc1-c1ccc(Br)cc1	-4.2%	-32.3%
75	O=C(NCc1ccc2c(c1)OCCO2)N1CCN(S(=O)(=O)c2ccc(Cl)c(Cl)c2)CC1	12.3%	-0.7%
76	Cn1c(=O)c2c(-c3ccccc3)n3c(c2n(C)c1=O)C(c1ccco1)Nc1ccccc1-3 (stereo not given)	-2.5%	-1.9%
77	Cc1ccc(NC(=O)c2cc3c(cc2C)OCCCO3)cc1C	205.2%[activator]	23.2%
78	CCCCn1cc2c(c1-c1ccccc1Br)c(=O)n(C)c(=O)n2C	-21.4%	-16.0%
79	O=C(Cn1c(=O)c2c(ncn2C2CCCC2)n(Cc2ccccc2)c1=O)NCc1ccco1	-12.8%	-8.0%
80	O=C(Nc1ccc(Br)cc1)c1ccc2c(c1)CCC2	209.0%[activator]	31.3%
81	COCCCNC(=O)CCn1ccc2cc(S(=O)(=O)N3CCCCC3)ccc21	0.8%	0.0%
82	CCC(C(=O)N1CCN(c2ccccc2)CC1)n1nc(C)c2sc3ccccc3c2c1=O (stereo not given)	-26.2%	-6.8%
83	O=C(CCCCCn1c(=O)[nH]c2ccccc2c1=O)NCc1ccc(Cl)cc1	-21.3%	-12.3%
84	Cc1cccc(NC(=O)CSc2nc3ccccc3c3nc(CCc4c(C)n[nH]c4C)nn23)c1	u	u
85	COc1ccc(Cl)cc1C(=O)NCc1ccc(-c2nc3ncccc3o2)cc1	2.9%	-1.9%

# Complete entries, quoted from the list:
# Shown for Cn1c(=O)c2c(-c3ccccc3)n3c(c2n(C)c1=O)C(c1ccco1)Nc1ccccc1-3 (stereo not given) → 2A firefly: -2.5%; 2A Renilla: -1.9%
# Shown for Cc1ccc(NC(=O)c2cc3c(cc2C)OCCCO3)cc1C → 2A firefly: 205.2%[activator]; 2A Renilla: 23.2%
# Shown for O=C(CCCCCn1c(=O)[nH]c2ccccc2c1=O)NCc1ccc(Cl)cc1 → 2A firefly: -21.3%; 2A Renilla: -12.3%

# New compounds follow.
No.	canonical_smiles	2A firefly	2A Renilla
86	O=C(O)c1cc(-c2ccncc2)nc2ccc(F)cc12	-5.5%	-12.2%
87	Cn1cc(CCCC(=O)NCc2cccc(Br)c2)c2ccccc21	-14.1%	17.9%
88	CC1(O)CCC2C3CCC4=CC(=O)CC[C@]4(C)C3CC[C@@]21C (stereo not given in full)	7.9%	-0.1%
89	O=C(CCCc1c[nH]c2ccccc12)Nc1ccc2ncccc2c1	0.0%	4.9%
90	Cc1c(Cl)cccc1N1CC(c2nc3ccccc3n2C(C)C)CC1=O (stereo not given)	0.1%	111.8%[activator]
91	Cc1ccc(NC(=O)C2Cc3ccccc3O2)cc1S(N)(=O)=O (stereo not given)	35.7%[activator]	0.0%
92	CCSc1ccccc1C(=O)Nc1nc2cc(OC)c(OC)cc2c(=O)[nH]1	38.4%[activator]	51.2%[activator]
93	COc1ccc(NC(=O)c2cc3c(s2)-c2c(C)cccc2OC3)cc1Cl	13.8%	-3.4%
94	C#CC(CC)(CC)NC(=O)c1cc(Cl)c(OC)c(OC)c1	0.9%	-4.8%[1.06 µM]
95	Cc1ccc(-n2nnnc2SCc2ncc(-c3ccccc3)o2)c(C)c1	3.4%	13.0%
96	Cc1ccc(-c2cnc(CCC(=O)Nc3cccc(F)c3)o2)cc1C	8.1%	11.4%
97	COCCn1c(COc2ccccc2-c2ccccc2)n[nH]c1=S	-3.8%	13.8%
98	CCCCCn1nc(C(=O)OCC(=O)Nc2ccc3c(c2)OCO3)c2ccccc2c1=O	11.9%	4.7%
99	COc1ccc(OCC(=O)Nc2ccc(C(=O)OCc3cc(=O)n4nc(C)sc4n3)cc2)cc1	-16.4%	-9.2%
100	CCCn1c(C2CC(=O)N(c3cccc(C(F)(F)F)c3)C2)nc2ccccc21 (stereo not given)	-11.1%	12.0%
101	CCc1cccc(C)c1Nc1c(-c2cc(OC)c(O)c(OC)c2)nc2cnccn12	11.0%	9.5%
102	COc1ccc(-c2nc3cc(NC(=O)c4cccs4)ccc3o2)cc1	48.3%[activator]	1.6%
103	COc1ccc(CNC(=O)Cn2c(=O)oc3cc(S(=O)(=O)N4CCCC4)ccc32)cc1	16.5%	-7.7%
104	CN(c1ccc(-c2csc(NC(C)(C)C)n2)cc1)S(C)(=O)=O	208.7%[activator]	88.7%[activator]
105	N#CCCn1c(-c2ccccc2)cc2ccccc21	97.7%[activator]	10.1%
106	COc1cccc(Oc2c(C)oc3cc(OCC(N)=O)ccc3c2=O)c1	-8.0%	-9.6%
107	Cc1ccccc1C(=O)Nc1nc2c(s1)CC(C(C)(C)C)CC2 (stereo not given)	23.4%	-7.7%
108	CCc1ccccc1NC(=O)CCCSc1nc(-c2ccco2)cc(C(F)(F)F)n1	-5.4%	-8.3%
